Compound activity (PubChem)
NPYLR7 agonist: mosquito NPYLR7 agonism; HEK293T NPYLR7/Galpha15, GCaMP6s calcium fluorescence; activation, % at 10 µM; hit rate 0.15% among 270,000; AID 1259423; in the data active = activation above about 40%;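 note: 0% = vehicle and 100% = reference agonist at the receptor; some compounds past the cut are filed as inactive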
NPYLR7 agonist max-min: second read-out of NPYLR7 agonist, no call of its own (marks repeat the call); activation, %; measured here: Max-Min RFU normalised activation; some inactives read as strong as hits;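 span of the calcium signal over five minutes; 0% = vehicle and 100% = native peptide agonist; compound fluorescence can raise it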
The depositor's hits bear a star.

SMILES | NPYLR7 agonist | NPYLR7 agonist max-min
C/C(=N/N1CCOCC1)c1c(C(F)(F)F)[nH]n(-c2nc3ccccc3s2)c1=O | -0.4 | 1.1
COc1ccc(-c2cc(C(=O)N(C)CCc3ccc(OC)c(OC)c3)n(-c3cccc(Cl)c3)n2)c(OC)c1 | -3.0 | -1.3
Cc1cc(CSC(C)c2ccc(OC(F)F)cc2)no1 (stereo not drawn) | 1.6 | 1.1
COCCNC(=O)C(C1CCCC1)N1CCN(C(=O)c2cccc([N+](=O)[O-])c2)CC1 (stereo not drawn) | -8.9 | -6.7
CC(C)(C#N)CCCN1CCCC(CNS(N)(=O)=O)C1 (stereo not drawn) | 0.7 | 0.4
CC(C)n1cc(C(=O)N2CCN(C(=O)CCc3ccccc3)CC2)c2nn(-c3ccccc3)c(=O)c-2c1 | -3.9 | -10.5
CC1(C)CCC(NC(=O)NCCNc2ncccc2C#N)c2ccccc21 (stereo not drawn) | 1.6 | 0.3
COCC(=O)N1CCN(c2ccc3c(c2)OCO3)C(=O)C1C (stereo not drawn) | 24.7 | 14.8
CC1(C)CN(C(=O)Nc2ccccc2F)C2(S1)C(=O)Nc1ccc(Cl)cc12 (stereo not drawn) | 3.6 | 7.8
CNc1cncc(-c2c(OC)cccc2OC)n1 | 2.5 | 1.1
CCOC(CC)CNC(=O)c1c(O)cccc1O (stereo not drawn) | 16.5 | 7.9
Cc1ccc(-n2cc(CN(C)C(C)c3ccncn3)c(-c3cccc(C)c3)n2)cc1 (stereo not drawn) | 13.8 | 6.2
CC1(Cc2ccc3c(c2)OCO3)C(=O)Nc2ccc(Cl)cc21 (stereo not drawn) | 0.7 | 0.3
O=C(NN1CCOCC1)c1ccc(Oc2ccc(F)cc2)cc1 | 8.9 | 9.0
O=C(NCc1ccccc1)N1CCn2cccc2C1c1cccnc1 (stereo not drawn) | 1.5 | -1.2
COC(=O)c1ccc(Cl)cc1NS(=O)(=O)c1cccs1 | 1.6 | -0.4
CC(C)C(NC(=O)c1ccc2cn[nH]c2c1)c1cccs1 (stereo not drawn) | 3.6 | 1.0
CCOc1ccc(-n2c(C(C)N(CC(C)C)C(=O)c3cccc(Br)c3)nc3ccccc3c2=O)cc1 (stereo not drawn) | 22.6 | 25.8
CC1=NN(c2ccc(C(=O)NC(c3ccc(F)cc3)c3cccs3)cc2)CC1 (stereo not drawn) | 5.1 | 3.2
O=C(Cc1ccccc1)N(Cc1cccnc1)c1nc2c(F)cccc2s1 | -8.9 | -8.1
O=C(CCSCCOc1ccccc1)Nc1cccc(Cl)c1 | -1.1 | -2.5
Cc1cc(C(C)(C)C)cc(C)c1CCNS(=O)(=O)N(C)C | 9.0 | 6.9
Cc1cccc(NC(=O)N2CCSC23C(=O)N(Cc2c(F)cccc2F)c2ccccc23)c1 (stereo not drawn) | -4.9 | 2.8
CCOc1ccc(-n2c(CNC(=O)c3ccc(S(=O)(=O)N4CCCCC4)cc3)nnc2SCC(=O)Nc2nccs2)cc1 | 8.1 | 6.8
CN(CCc1ccccn1)c1ncccc1CNC(=O)c1cnn2ccccc12 | 12.5 | 11.1

(list continues)
SMILES | NPYLR7 agonist | NPYLR7 agonist max-min
FC(F)(F)c1nnc2ccc(NCC3COc4ccccc4C3)nn12 (stereo not drawn) | 5.9 | 3.9
CCOc1ncccc1-c1cc(O)c(F)c(F)c1 | 15.4 | 8.0
CCCCCCCCCCCCCC(=O)Nc1ccc(N2CCCC2)c(C(=O)NC(C)c2ccccc2)c1 (stereo not drawn) | -2.5 | 6.2
Cc1ccc(C2(c3noc(CN(C)CCC4CCOCC4)n3)CCCC2)cc1 | 15.6 | 8.1
O=C(c1ccc(CSc2nc3ccc([N+](=O)[O-])cc3s2)cc1)N1C2CCC1CC(Oc1cccc(C(F)(F)F)c1)C2 (stereo not drawn) | 2.5 | -13.5
Cc1cccc(NC(=O)Nc2ccc(N3CCCC3)c(C(=O)NCc3ccc(F)cc3)c2)c1 | -4.1 | -1.7
O=C(O)C1COC2(CCN(C(=O)Cc3ccccc3)CC2)N1C(=O)c1ccc(F)cc1 (stereo not drawn) | 8.5 | 17.0
COc1cc(OC)nc(Nc2nc(C(N)CCc3ccccc3)cs2)n1 (stereo not drawn) | -2.8 | -8.1
Cc1nc(CN2CCN(C(C)C(=O)Nc3nc(C)c(C)s3)CC2)no1 (stereo not drawn) | 11.0 | 3.3
Cc1cccc(-c2cc(NCCc3cccnc3)n3nccc3n2)c1 | 1.6 | -1.6
O=c1c2ccccc2nc(-c2ccc(F)cc2C(F)(F)F)n1Cc1ccco1 | 1.9 | -5.0
COc1cc(OC)cc(C(=O)Oc2ccc(Cl)cc2NC2=NS(=O)(=O)c3ccccc32)c1 | 6.2 | 12.0
CN(Cc1cccc(Cl)c1)C(=O)NCc1cc(F)cc(F)c1 | 1.1 | -0.1
COCCNC(=O)C1(C)CCCN(Cc2csc3ccccc23)C1 (stereo not drawn) | 0.3 | -0.5
O=C(Nc1nncs1)C1(Sc2ccccc2)CCCC1 | -25.4 | -21.9
O=C(NC1CCN(c2ccccc2C(=O)NCc2ccc3c(c2)OCO3)CC1)c1ccc(Br)cc1 | 15.3 | 19.7
CCCCCOc1ncnc2c1sc1nc3c(cc12)COC(C)(C)C3 | 4.3 | 4.0
O=C(c1cccs1)N1CCC(C(=O)N2CCN(Cc3ccc(Cl)s3)CC2)CC1 | -0.3 | 2.7
COc1ccc(Oc2ccc([N+](=O)[O-])cc2C(=O)N2CCCCC2C(=O)OCCc2ccc(OC)c(OC)c2)cc1 (stereo not drawn) | 0.6 | -2.2
CCc1ccc(CC)c(-c2csc(N)n2)c1 | -0.1 | -0.9
COC(=O)c1sc2nc(C)c(C)c(C)c2c1N | -1.5 | -2.3
NC(=O)C1CCN(C(=O)NC2CCCCC2)CC1 | 11.2 | 10.3
COc1ccc(CNCCCn2nc(C)cc2C)cc1 | -1.3 | -4.1
COc1cc(C(=O)NCCCCc2nc(C)cs2)ccc1O | -0.9 | -2.3
O=C(O)CCc1nc2ccccc2s1 | 1.1 | 5.8

Next part.
SMILES | NPYLR7 agonist | NPYLR7 agonist max-min
Cc1ccc(-c2nn(-c3cccc(F)c3)cc2CNCCN2CCCC2)o1 | -0.2 | -2.7
COc1ccc(NC(=O)N(Cc2nc(C(=O)NCC(C)C)cs2)CC(C)C)c(OC)c1 | 10.6 | 18.8
CC1(C(=O)NCc2ccc(S(C)(=O)=O)cc2)CC1(Cl)Cl (stereo not drawn) | -6.7 | -7.4
N#C/C(=C\c1ccccc1O)C(=O)N/N=C\c1ccc(Cl)cc1 | 15.0 | 12.3
COc1ccccc1-c1nnc(SCc2ccccc2)o1 | 6.9 | 2.5
CNc1cc(-c2cnc(-n3cnnc3)c(C)c2)c2cc[nH]c2n1 | 21.2 | 9.7
Cn1ccnc1N1CCN(C(=O)C2CC2)CC1 | 2.9 | 8.9
COC1c2c(c(-c3ccccc3)nn2-c2ccccc2)-c2nc3ccccc3n21 (stereo not drawn) | -2.8 | -1.3
CC(C)C(C(=O)N1CCN(Cc2ccncc2)CC1)N1CCCC1 (stereo not drawn) | 5.3 | 2.6
Cc1cccc(C(C(=O)NCCSc2nnc(C)s2)N(C)C)c1 (stereo not drawn) | -8.3 | -10.9
O=C(O)N1CC(=S)CSC1=O | 8.7 | 3.4
CCCCCC(=O)N1CCC2(CC1)C(=O)N(CC(=O)NCc1ccc(F)cc1)CN2c1ccccc1 | -3.7 | 4.0
COc1ccccc1CN(Cc1cccnc1)C(=O)c1sc(C)nc1C | 5.8 | 4.9
CCc1nc2ccc(C(=O)NCCc3ccccn3)cn2c1N(CC)Cc1cccc(Br)c1 | 17.5 | 21.5
CCn1nc(C(=O)NNC(=O)c2c(C)noc2C)c2ccccc2c1=O | 14.4 | 5.5
N#CCCCOC(=O)C1CC(O)CN1C(=O)COc1ccccc1 (stereo not drawn) | 2.7 | 3.2
COc1cccc(CCC(=O)NC2CCN(c3ccc(C(F)(F)F)cn3)CC2)c1 | 19.2 | 16.8
COc1cccc(Cc2nsc(Oc3ccc(C(=O)Nc4ccc(C)cc4)cc3OC)n2)c1 | 11.9 | 28.6
O=C(CSc1ccc2nnc(CCNC(=O)c3ccccc3)n2n1)NCc1ccccc1 | 5.3 | -5.2
N#CC1C(=N)Oc2cc(N)ccc2C1c1ccncc1 (stereo not drawn) | 1.8 | 1.1
COc1cccc(S(=O)(=O)CCN2CC(C)OCC2C)c1 (stereo not drawn) | 1.9 | 0.9
CCc1cc(Oc2ccc(F)cc2)nc(SCc2ccc(F)c(F)c2)n1 | 0.8 | 8.4
COc1cccc(NC(=O)NCCS(=O)(=O)c2c(C)[nH]c3ccccc23)c1 | 3.2 | 14.5
CCOCCNC(=O)c1ccc(-c2cc(-c3cccc4c3OCCO4)[nH]n2)cc1 | 3.4 | -3.1
Brc1ccc(-c2csc(NNC3=NCCCCC3)n2)cc1 | 3.1 | 1.4

Remaining list, next part.
SMILES | NPYLR7 agonist | NPYLR7 agonist max-min
COc1ccc(/C=C/CN2CCC(N3CCC(C(=O)NC4CC4)CC3)CC2)cc1 | 1.8 | 2.2
Cc1cc(S(=O)(=O)N2CCN(c3ccccc3C)CC2)c(C)cc1Cl | -1.1 | -4.6
Cc1c(C(=O)N(C)Cc2ccc(F)cc2)sc(=O)n1Cc1ccc(Cl)c(Cl)c1 | 1.2 | -2.0
NC(c1ccccc1)c1csc(Nc2ccc(C(F)(F)F)cn2)n1 (stereo not drawn) | 1.6 | 1.4
CCOCCOc1nc(-c2ccco2)n(-c2ccc(NS(=O)(=O)c3ccc(Cl)cc3)cc2)n1 | 15.4 | 20.0
Cc1cccc(Nc2cc3c(cn2)cc(-c2cccc(C(F)(F)F)c2)n3C)c1 | -14.9 | -14.8
CCc1cc(N2CCN(CC(=O)OC)C(=O)C2)nc(N2CCOCC2)n1 | 4.5 | 5.3
CCCCN(CC(=O)N1CCSC1c1ccc(F)cc1)Cc1ccc(F)c(F)c1 (stereo not drawn) | 0.1 | 7.0
COc1cccc2c1[C@@H]1CN(CCCCn3c(=O)[nH]c4c(sc5ncc(-c6ccccc6)nc54)c3=O)C[C@@H]1CO2 | 0.5 | -25.3
Cc1ccc(C2CC(C(F)(F)F)n3ncc(C(=O)NC(C)C)c3N2)cc1 (stereo not drawn) | -2.2 | -1.7
CC1=C(C(=O)OCC(C)C)C(c2cccc(NC(=O)c3cccc(Br)c3)c2)NC(=S)N1C (stereo not drawn) | 2.5 | 3.3

Structural class, the entries above containing a Cl atom.
SMILES | NPYLR7 agonist | NPYLR7 agonist max-min
COc1ccc(-c2cc(C(=O)N(C)CCc3ccc(OC)c(OC)c3)n(-c3cccc(Cl)c3)n2)c(OC)c1 | -3.0 | -1.3
CC1(C)CN(C(=O)Nc2ccccc2F)C2(S1)C(=O)Nc1ccc(Cl)cc12 (stereo not drawn) | 3.6 | 7.8
CC1(Cc2ccc3c(c2)OCO3)C(=O)Nc2ccc(Cl)cc21 (stereo not drawn) | 0.7 | 0.3
COC(=O)c1ccc(Cl)cc1NS(=O)(=O)c1cccs1 | 1.6 | -0.4
O=C(CCSCCOc1ccccc1)Nc1cccc(Cl)c1 | -1.1 | -2.5
COc1cc(OC)cc(C(=O)Oc2ccc(Cl)cc2NC2=NS(=O)(=O)c3ccccc32)c1 | 6.2 | 12.0
CN(Cc1cccc(Cl)c1)C(=O)NCc1cc(F)cc(F)c1 | 1.1 | -0.1
O=C(c1cccs1)N1CCC(C(=O)N2CCN(Cc3ccc(Cl)s3)CC2)CC1 | -0.3 | 2.7
CC1(C(=O)NCc2ccc(S(C)(=O)=O)cc2)CC1(Cl)Cl (stereo not drawn) | -6.7 | -7.4
N#C/C(=C\c1ccccc1O)C(=O)N/N=C\c1ccc(Cl)cc1 | 15.0 | 12.3
Cc1cc(S(=O)(=O)N2CCN(c3ccccc3C)CC2)c(C)cc1Cl | -1.1 | -4.6
Cc1c(C(=O)N(C)Cc2ccc(F)cc2)sc(=O)n1Cc1ccc(Cl)c(Cl)c1 | 1.2 | -2.0
CCOCCOc1nc(-c2ccco2)n(-c2ccc(NS(=O)(=O)c3ccc(Cl)cc3)cc2)n1 | 15.4 | 20.0

This is a subset, so the mix of outcomes need not match the whole.
